UUG fidelity – modulators of yeast start codon fidelity, primary screen, whole organism, S. cerevisiae, single point, plate reader; S. cerevisiae UUG-firefly luciferase reporter, luminescence/redox ratio; activity score, % at 18.7 µM; hit rate 0.13% among 350,000; AID 602363, 2012;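 active means replicate mean at a twofold rise or more, about +100% in these data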;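 further: firefly luciferase made from a UUG start codon reports start codon fidelity; reporter light over untreated wells divided by growth signal over untreated wells; some hits fall short of that in this replicate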
eIF4H FP inh – human eIF4H binding inhibitors, primary screen, translation initiation inhibitor project, biochemical, uHTS, fluorescence polarization | Eukaryotic translation initiation factor 4H (Homo sapiens), Q15056 | eIF4H fluorescence polarization binding assay | inhibition, % at 35 µM | hit rate 0.94% among 290,000;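 active means 50% or more with normal probe brightness, or confirmed in later tests; inconclusive means above 50% with abnormal brightness, or retests that disagree; inactive means below 50% or failed in later tests; about a fifth of its hits are not listed in these tables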;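 further: calls also rest on retests at 20 µM and on dose response follow-up; 0% = protein and probe with vehicle and 100% = probe without protein; strong numbers were not always called active; many hits fall short of the cut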
MT1-MMP act inh – blockers of MT1-MMP proenzyme processing, primary screen, HT1080 RFP-PRO-GFP cells, GFP/RFP fluorescence. Matrix metalloproteinase-14 (Homo sapiens), P50281. GFP/RFP ratio fluorescence, overnight; percent of plate control window, DMSO zero. GFP/RFP ratio change, % at 20 µM. hit rate 0.061% among 360,000. AID 651647, 2012;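 active means GFP/RFP ratio change of at least 30% with cell ATP level not reduced by more than half and red fluorescence within 50% of control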; further: strong numbers were not always called active
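Read-out: GFP/RFP fluorescence ratio; Test system: RFP-PRO-GFP reporter HT1080 cells; Compound dosing: single-point 20 µM compound, 1% DMSO; Times: overnight compound exposure at 37 °C.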
PABP FP inh – PABP poly(A) RNA binding inhibitors, primary screen, biochemical, fluorescence polarization, uHTS; inhibition, % at 35 µM; hit rate 1% among 290,000; Polyadenylate-binding protein 1 (Homo sapiens), P11940; AID 2014, 2009;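 active means 50% or more with normal probe brightness, or confirmed in later tests; inconclusive means above 50% with abnormal brightness, or retests that disagree; inactive means below 50% or failed in later tests; about a fifth of its hits are not listed in these tables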;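 further: calls also rest on retests at 20 µM and on dose response follow-up; controls were probe without protein and protein plus probe with vehicle; some compounds called inactive have numbers as strong as hits; many hits fall short of the cut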
Rce1 inhib – yeast Rce1p protease inhibitors, primary screen, biochemical, fluorescence, cell-free homogeneous. yeast membranes, quenched prenylated peptide cleavage fluorescence. CAAX prenyl protease 2 (Saccharomyces cerevisiae (strain ATCC 204508 / S288c)), Q03530. calls only. hit rate 0.27% among 290,000. AID 2563, 2010;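 active means fall in fluorescence gain of 50% or more versus controls, with final raw signal at or below 3038400; inconclusive means same 50% fall but final raw signal above 3038400; inactive means fall in fluorescence gain under 50%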;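 further: plate controls were neutral control wells for no effect and wells lacking membranes for full effect; tested at 10 µM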
Target sequence (Q03530 whole entry, looked up): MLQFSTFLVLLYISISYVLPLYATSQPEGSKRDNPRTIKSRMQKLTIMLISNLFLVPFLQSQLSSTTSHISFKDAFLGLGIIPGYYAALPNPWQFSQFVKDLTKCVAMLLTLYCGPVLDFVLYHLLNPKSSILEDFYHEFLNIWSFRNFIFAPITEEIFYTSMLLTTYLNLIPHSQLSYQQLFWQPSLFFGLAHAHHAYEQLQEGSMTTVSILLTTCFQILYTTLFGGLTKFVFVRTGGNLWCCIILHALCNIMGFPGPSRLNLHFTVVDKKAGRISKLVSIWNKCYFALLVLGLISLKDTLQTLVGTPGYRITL
HIV Env fusion – inhibitors of HIV-1 Env-driven cell-cell fusion, primary screen, HeLa-JRFL effector, CEM21 target cells, luciferase; hit rate 1.1% among 360,000; inhibition, % at 12.3 µM;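 active means mean replicate inhibition score of at least 50 and every replicate individually at or above 50; inconclusive means only one of the two criteria met; inactive means mean below 50 and not all replicates reaching 50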;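 further: 0% = plate neutral controls and 100% = maraviroc near 300 nM; one replicate is shown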
CSC inhib – cancer stem cell viability inhibitors, primary screen, luminescence | cancer stem cell-like cells viability | inhibition, % at 7.5 µM | hit rate 1.1% among 300,000;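 active means mean at 75% or more and at least half the replicates too; inconclusive means mean and replicates disagree; tested in HMLE shEcad cells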;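 further: 0% = median of negative and 100% = median of positive control wells; the first replicate is given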
MT1-MMP act inh RFP – second read-out of MT1-MMP act inh, no call of its own (marks repeat the call); RFP signal change, %; measured here: RFP expression control read;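 0 = vehicle wells; hits needed this value within 50% of zero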
* = called active by the depositor; i = inactive; ? = inconclusive; . = not tested or not shown. Some of the compounds tested; count on the stated rates, not on these rows.

| SMILES | MT1-MMP act inh RFP | eIF4H FP inh | HIV Env fusion | CSC inhib | UUG fidelity | MT1-MMP act inh | Rce1 inhib | PABP FP inh |
| --- | --- | --- | --- | --- | --- | --- | --- | --- |
| O=C(Nc1ccccc1C(=O)N1CCCCC1)c1cccs1 | 5.5 | -5.9 | 33.5 | 2.4 | -7.0 | 0.7 | i | 5.2 |
| CCOc1ccccc1NC(=O)CC(O)(C(F)(F)F)C(F)(F)F | 1.2 | -0.5 | -61.8 | -18.7 | -9.2 | -2.4 | i | -2.3 |
| O=C(NCc1cccc(C(F)(F)F)c1)c1ccc2sc([C@@H]3O[C@H](CO)[C@H](O)[C@H](O)[C@H]3O)nc2c1 | 3.2 | . | 5.7 | . | -13.6 | 2.1 | . | . |
| COC(=O)c1ccccc1Oc1cc(C(F)(F)F)nc(-c2ccccn2)n1 | 0.8 | . | -6.3 | -1.1 | -8.9 | -1.4 | i | . |
| COCc1nnc(NS(=O)(=O)c2c(C)cc(C)cc2C)s1 | 3.6 | -6.0 | 14.4 | -11.2 | -16.9 | -0.6 | i | 15.0 |
| O=C(O)CSc1nnc(-c2cccnc2)n1Cc1ccccc1 | 8.4 | 4.6 | . | . | -21.7 | 4.3 | i | -3.5 |
| COc1cccc(C(=O)NCCS(=O)(=O)NCCc2ccc(OC)c(OC)c2)c1 | 1.5 | . | -14.0 | -4.1 | -7.9 | -3.0 | i | . |
| CN(C)C(=O)CCCc1nc(-c2ccc(Cl)cc2)no1 | -7.5 | 2.5 | 55.1* | -5.6 | -7.6 | 2.1 | i | -0.6 |
| Cc1cccc(N2CCN(C(=S)Nc3ccc4nc(N5CCN(C)CC5)cc(C)c4c3)CC2)c1C | -14.8 | -8.3 | 26.4 | . | -26.8 | -11.3 | i | -5.8 |
| CC(CCc1ccccc1)NC(=O)c1ccc(Br)o1 (stereo not given) | -3.2 | 4.9 | 13.6 | 4.5 | -2.9 | -3.4 | i | 5.8 |
| COc1ccccc1C(=O)Nc1ccccc1SC(=O)c1ccccc1OC | 5.1 | 11.0 | i | 58.2 | -23.8 | 4.1 | i | 1.5 |
| COc1ccc(NC(C)=O)cc1NC(=O)c1ccc2ccccc2c1 | -12.2 | -6.5 | 4.4 | 4.7 | -11.0 | -2.2 | i | -0.5 |
| COc1ccc(CN2C(=O)C(CC(=O)NCc3cccs3)CC(C(=O)N(C)C)=C2C)cc1 (stereo not given) | 2.9 | . | -30.1 | . | -4.6 | -1.2 | . | . |
| CCN(CC)S(=O)(=O)c1ccc(NC(=S)NC(=O)C(C)C)cc1 | 5.6 | -2.9 | -2.0 | -22.0 | . | 4.6 | i | -3.4 |
| CSCCC(NS(=O)(=O)c1ccc2c(c1)oc(=O)n2C)C(=O)NC1CCCc2ccccc21 (stereo not given) | 6.0 | -1.5 | 87.0* | -7.2 | -25.9 | -5.2 | i | 0.8 |
| CCOC(=O)c1oc2ccccc2c1CN1CCOCC1 | -0.4 | -5.7 | -29.0 | -6.4 | -7.3 | -3.8 | i | -5.0 |
| Cc1cc(NC(=O)Nc2ccc(C)c(C)c2)no1 | 4.9 | -1.4 | -3.0 | -1.4 | . | 1.9 | i | -1.9 |
| CSc1ncc(C(=O)Nc2ccc(C)cc2C)c(C)n1 | 0.7 | -3.6 | -1.1 | -8.8 | -3.9 | -3.2 | i | -2.1 |
| CCC(OC(=O)C1=Cc2ccccc2OC1)C(=O)NC1CCCC1 (stereo not given) | -17.2 | -4.7 | . | -18.4 | -14.1 | -8.0 | i | 3.4 |
| CCN(CC)CCNC(=O)c1ccc(NC(=O)c2ccc(S(=O)(=O)N(C)c3ccccc3OC)cc2)cc1 | -1.8 | . | 9.1 | . | -10.0 | -1.4 | . | . |
| c1ccc(-c2ccc(C3=Nn4c(nnc4-c4cc(-c5ccccc5)n[nH]4)SC3)cc2)cc1 | -4.6 | -11.8 | . | 1.2 | -8.6 | 4.9 | i | 5.7 |
| COc1ccc(CNC(=O)C2CCN(c3nccs3)CC2)cc1 | 7.5 | -6.8 | . | 0.6 | -11.9 | 0.2 | . | -2.4 |
| CCCN1Cc2cccc(C(=O)NC(C)c3cccs3)c2C1=O (stereo not given) | -0.9 | -8.7 | -10.8 | . | . | -0.7 | i | 2.1 |
| CCc1[nH]c(=O)[nH]c1C(C)S(=O)(=O)c1ccc(C)cc1 (stereo not given) | 3.0 | -7.2 | 8.2 | -1.6 | . | 0.8 | i | 6.9 |
| CCN(Cc1ccccc1)S(=O)(=O)c1ccc(S(=O)(=O)N2CCN(C)CC2)cc1 | -4.9 | -11.3 | -37.7 | 21.1 | -10.6 | -3.1 | i | -11.7 |
| CCC(C(=O)NCCCN1CCN(CC)CC1)n1nc(C)n2c(cc3occc32)c1=O (stereo not given) | 2.9 | 0.3 | -5.9 | -15.9 | -11.6 | -2.4 | i | 1.9 |
| O=C(CCS(=O)(=O)c1ccc(Cl)cc1)N1CCN(c2ccccc2F)CC1 | -3.1 | 6.9 | 5.8 | -23.8 | -11.7 | 1.2 | i | -2.1 |
| CN(C(=O)c1cnc2n(c1=O)CCS2)C1CCCCC1 | 1.5 | 1.3 | -26.0 | -12.0 | -4.7 | 3.3 | i | 2.3 |
| CCOC(=O)N1CCC(NCc2c(C(=O)N(C)Cc3ccccc3)nc3ccccn23)CC1 | 3.0 | -5.2 | -0.5 | . | . | -1.7 | i | 4.3 |
| CSc1nc(-c2ccccc2)c2cc(Cl)ccc2n1 | 2.2 | -3.0 | -25.6 | -3.5 | . | 0.8 | i | 5.3 |

The last 6 compounds of the section before open the next one.
| SMILES | MT1-MMP act inh RFP | eIF4H FP inh | HIV Env fusion | CSC inhib | UUG fidelity | MT1-MMP act inh | Rce1 inhib | PABP FP inh |
| --- | --- | --- | --- | --- | --- | --- | --- | --- |
| CCN(Cc1ccccc1)S(=O)(=O)c1ccc(S(=O)(=O)N2CCN(C)CC2)cc1 | -4.9 | -11.3 | -37.7 | 21.1 | -10.6 | -3.1 | i | -11.7 |
| CCC(C(=O)NCCCN1CCN(CC)CC1)n1nc(C)n2c(cc3occc32)c1=O (stereo not given) | 2.9 | 0.3 | -5.9 | -15.9 | -11.6 | -2.4 | i | 1.9 |
| O=C(CCS(=O)(=O)c1ccc(Cl)cc1)N1CCN(c2ccccc2F)CC1 | -3.1 | 6.9 | 5.8 | -23.8 | -11.7 | 1.2 | i | -2.1 |
| CN(C(=O)c1cnc2n(c1=O)CCS2)C1CCCCC1 | 1.5 | 1.3 | -26.0 | -12.0 | -4.7 | 3.3 | i | 2.3 |
| CCOC(=O)N1CCC(NCc2c(C(=O)N(C)Cc3ccccc3)nc3ccccn23)CC1 | 3.0 | -5.2 | -0.5 | . | . | -1.7 | i | 4.3 |
| CSc1nc(-c2ccccc2)c2cc(Cl)ccc2n1 | 2.2 | -3.0 | -25.6 | -3.5 | . | 0.8 | i | 5.3 |
| CCc1nn(CC(=O)NCCCN2CCN(CC)CC2)c(=O)c2cc3occc3n12 | 2.5 | -8.3 | -2.6 | -3.9 | -18.3 | -2.3 | i | -8.8 |
| COCCCn1cnc2oc3nc4ccccc4nc3c2c1=O | 1.5 | 1.6 | . | -1.0 | -21.5 | -7.8 | ? | 8.8 |
| CON/C=C(\C=Nc1ccccc1)c1ncc(C(F)(F)F)cc1Cl | -2.1 | -6.4 | 3.8 | 10.5 | -18.0 | -1.7 | i | -5.2 |
| C[C@H]1CN=C(N(C)C)N1CC1CCCC1 | 1.6 | . | -25.6 | 2.6 | -10.1 | 0.7 | . | . |
| COc1ccc(OC)c(CCNC(=O)CN2C(=O)CC(C)(C)S(=O)(=O)c3ccccc32)c1 | 4.0 | 0.4 | -27.8 | . | -10.4 | -2.2 | i | -3.8 |
| CCCCNC(=O)c1ccccc1C(=O)NCCCC | 5.1 | -2.0 | -104.2 | -8.1 | -14.8 | 0.2 | i | -3.9 |
| Cc1nc(SCc2nc3ccc(C(F)(F)F)cc3[nH]2)c2oc3ccccc3c2n1 | -16.2 | . | -2.4 | 103.6* | -22.6 | -4.9 | . | . |
| COc1ccc(S(=O)(=O)N2CCC(C(=O)N3CCCC3)CC2)cc1Cl | -3.3 | 1.6 | . | -21.0 | -18.7 | -0.7 | i | -0.5 |
| COc1ccc(N2CC(C(=O)Nc3nc(-c4ccccc4)c(C(C)=O)s3)CC2=O)c(OC)c1 (stereo not given) | 1.0 | . | 0.0 | 4.8 | 18.2 | 7.5 | i | . |
| CCCCNC1=CC(=O)C(=O)c2ccccc21 | 6.0 | 5.1 | -4.1 | 7.7 | . | 12.0 | i | 13.3 |
| Cc1nn(C(C)C(=O)NCc2cccs2)c(=O)c2nn(-c3ccccc3)c(C)c12 (stereo not given) | 0.1 | -15.7 | -6.2 | -12.2 | -5.9 | 2.1 | i | -7.6 |
| Cc1cc2nc(C)n(CCCN)c2cc1C | -2.0 | -4.6 | -4.8 | 4.3 | -28.8 | 4.1 | i | 30.4 |
| CC(=O)c1c(C)[nH]c(C(=O)CSc2ccc(F)cc2)c1C | -28.9 | 4.4 | -14.9 | 4.6 | -13.5 | -2.1 | i | 14.6 |
| CCc1ccc(OC(C)C(=O)Nc2ccc(S(=O)(=O)Nc3cc(C)on3)cc2)cc1 (stereo not given) | -1.0 | -1.7 | 2.3 | 8.5 | 9.4 | -1.0 | i | -2.8 |
| O=C1NC2(CCCCC2)C(=O)N1Cc1cccc(C(F)(F)F)c1 | 1.0 | -6.5 | -3.2 | -2.9 | -10.3 | 1.0 | i | -13.4 |
| Cc1ccc(CC2CC(=O)N(c3cc(Cl)ccn3)C2=O)cc1 (stereo not given) | -1.0 | -4.3 | 9.2 | 10.5 | -5.9 | 3.1 | i | -7.4 |
| CCOC(=O)c1[nH]c(C)c(C(=O)OCC(=O)Nc2sc3c(c2C#N)CCCCC3)c1C | -1.6 | -2.4 | 12.7 | -7.4 | -6.8 | 0.4 | i | -8.8 |
| COc1ccc(Br)cc1S(=O)(=O)N1CCN=C1c1ccccc1 | -2.1 | -9.2 | -10.5 | . | -9.9 | -0.9 | i | -8.0 |
| COc1ccccc1/C=N/NC(=O)C(NC(=O)c1ccccc1)=C(C)C | -5.5 | -8.1 | -13.9 | -11.0 | -12.6 | -7.5 | i | 1.5 |
| CSCCC(NC(=O)c1ccc(=O)n(C)n1)c1nc2ccccc2[nH]1 (stereo not given) | 1.7 | 0.7 | -8.6 | -3.4 | -10.9 | 0.9 | i | 18.2 |
| CCOc1ccc(C(C)NC(=O)c2ccccc2F)cc1 (stereo not given) | 3.2 | -0.8 | . | -13.6 | -0.5 | 5.3 | i | -2.7 |
| CC(C)Sc1nc2[nH]ncc2c(=O)[nH]1 | 4.7 | -2.7 | -4.0 | 0.7 | -11.4 | 4.7 | i | -10.7 |
| Cc1ccc2c(Cl)c(C(=O)NCCc3ccccc3)sc2c1 | 3.3 | 7.0 | -45.7 | 19.2 | -10.6 | -1.2 | i | -0.2 |
| O=C(COC(=O)c1ccc(OC(F)F)cc1)NCc1cccs1 | -0.5 | . | . | 10.1 | -3.2 | 2.2 | . | . |
| CC(C)OCCCNC(=O)c1ccc(CS(=O)(=O)Cc2ccccc2F)o1 | -1.9 | 13.9 | . | -7.2 | -7.3 | -4.5 | i | -8.3 |
| CC(C)c1ccc(C(=O)NN2C(=O)C3CCCCC3C2=O)cc1 (stereo not given) | 1.8 | 0.4 | -47.6 | -18.6 | -20.5 | -7.3 | i | 3.5 |
